HCMV UL50-53 inh: cytomegalovirus nuclear egress complex inhibition. HTRF UL50-UL53 interaction, normalized percent inhibition. inhibition, % (no concentration beside the values). actives 0.15% (n = 190,000);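 active = both replicates at 50% or more, plus weaker picks with an unusually low signal ratio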;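 also: stock transfer was 100 nL into about 20 µL; 0% = negative control wells and 100% = wells with untagged competitor protein; inactives centre near -12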
The depositor's hits bear a star; & = joins results of further samples. These rows are one share of the data; count on the stated rates, not on these rows.

mol,HCMV UL50-53 inh
COc1cc(/C=C2/N=C(SCC(=O)c3ccccc3)N(c3ccccc3)C2=O)ccc1O,-11
NCc1ccc(-c2cccs2)cc1,-27
N[C@H](C(=O)O)c1ccc(C(=O)O)c(O)c1,-15
Cc1cccc(C(=O)NCCSc2c[nH]c3ccccc23)c1,-15
CN(CC(=O)N1CCc2ccccc2C1)c1cc2c(cc1Cl)NC(=O)CO2,-4
CCCCCNC(=O)N1CCC2(CC1)Nc1ccccc1N(CC1CC1)C2=O,-8
Cn1cc(S(=O)(=O)CC(=O)N2CCOCC2)c2ccccc21,-13
CCCCC[C@](C)(O)/C=C/[C@H]1[C@H](O)CC(=O)[C@@H]1C/C=C\CCCC(=O)O,-5&-5
Cc1ccc(-c2ccn(CC(=O)Nc3nn(C)c4ccccc34)n2)s1,-36
N#CC1=C(c2ccc(Cl)cc2)Sc2ccccc2NC1=O,3
COC(=O)Nc1ccc2[nH]cc(CCNC(C)=O)c2c1,0
CN(C)C(=O)c1cc(-c2cnc(-c3ccccn3)nc2)nc2cc(F)ccc12,29&29
CCCCCCCCCCCCCCOc1ccc(C(=O)O)o1,-23&-23
CCc1cc2c(=O)c(-c3cscn3)coc2cc1O,-18
S=C=Nc1cccc(NC(=S)NCCCCNC(=S)Nc2cccc(N=C=S)c2)c1,-4
O=C1CN(C(=O)c2cc3ccccc3oc2=O)c2ccccc2N1,4
O=C(NCCc1ccccn1)C1COc2ccccc2O1 (centres undefined),-2
CCc1ccc(NC(=O)c2cc(S(=O)(=O)N3CCCCC3)ccc2F)cc1,-4
O=S(=O)(c1ccc(C2CCCCC2)cc1)N1CCCC1,-4
COc1cccc(-n2cc(-c3ccnc(N(C)CCn4ccnc4)n3)cn2)c1,-13
Cc1cc2cc(CNC(=O)C(C)C)ccc2n1C,-8
Cc1cccc(Cn2nc(C(C)(C)C)cc2C(=O)Nc2cccnc2)c1,-2
COc1cccc(C(=O)N2CCN(Cc3cccc4ccccc34)CC2)c1,-13
O=S(=O)(c1ccccc1)c1nc(Nc2ccccc2N2CCOCC2)sc1Cl,1
O=S(=O)(Cc1cccc(F)c1)c1c[nH]c2ccccc12,-1
O=S(=O)(c1ccc(-c2csc(-c3cccnc3)n2)cc1)N1CCCCC1,-2
Oc1ccccc1-c1csc(-c2ccccc2)n1,-7
COc1ccc(CCNc2ncnc3sc(C)c(C)c23)cc1OC,1
CCOc1ccccc1C1C(C#N)=C(SC)NC(=O)C1C#N (centres undefined),-18
O=C(c1ccccc1)c1ccc(OC(=O)c2ccc(Br)o2)cc1,-18
CC(O)c1cn(CC2CCN(C(=O)CC3CCCCCC3)CC2)nn1 (centres undefined),-13
COCCn1c(COc2ccccc2)nc2ccccc21,3
CC(=O)NC1=NC(=O)C(CC(=O)O)S1 (centres undefined),-13
Cc1cc(CC(=O)Nc2cc(C)nn2C2CCCCC2)on1,12
Cc1ccc2[nH]c(=O)c(CC(=O)O)c(-c3ccccc3)c2c1,-7
C[C@H](CCC(=O)O)[C@H]1CC[C@H]2[C@@H]3CC[C@@H]4C[C@H](O)CC[C@]4(C)[C@H]3CC[C@]12C,-16
CCC(Sc1ccc(Cl)cc1)C(=O)Nc1nnc(-c2ccccc2)s1 (centres undefined),7
Cc1nc(C(N)=NC(=O)c2ccc(OC(F)(F)F)cc2)cs1,-12
CC1CCN(CCC(=O)Nc2sc3c(c2C#N)CCCC3)CC1,-6
Cc1ccc2c(=O)c3cccc(CC(=O)O)c3oc2c1C,0

In the list so far, these contain two or more sulfur atoms:
mol,HCMV UL50-53 inh
S=C=Nc1cccc(NC(=S)NCCCCNC(=S)Nc2cccc(N=C=S)c2)c1,-4
O=S(=O)(c1ccccc1)c1nc(Nc2ccccc2N2CCOCC2)sc1Cl,1
O=S(=O)(c1ccc(-c2csc(-c3cccnc3)n2)cc1)N1CCCCC1,-2
CCC(Sc1ccc(Cl)cc1)C(=O)Nc1nnc(-c2ccccc2)s1 (centres undefined),7

Part of the list above, set out differently:
> Cc1cccc(Cn2nc(C(C)(C)C)cc2C(=O)Nc2cccnc2)c1
  HCMV UL50-53 inh: -2

> COc1cccc(C(=O)N2CCN(Cc3cccc4ccccc34)CC2)c1
  HCMV UL50-53 inh: -13

> O=S(=O)(c1ccccc1)c1nc(Nc2ccccc2N2CCOCC2)sc1Cl
  HCMV UL50-53 inh: 1

> O=S(=O)(Cc1cccc(F)c1)c1c[nH]c2ccccc12
  HCMV UL50-53 inh: -1

Additional records.
mol,HCMV UL50-53 inh
O=C1Nc2ccccc2S/C1=C/Nc1ccccc1Cl,-7
CC(=O)Nc1c2c(nn1-c1ccc(Cl)cc1)CS(=O)(=O)C2,-6
c1ccc2nc(C3=NCCN3)cnc2c1,-100
NNc1nc2cc3c(cc2s1)OCO3,-6
O=C(O)CCCCCC[C@@H]1[C@@H](CC[C@@H](O)CCc2cccc(C(F)(F)F)c2)[C@H](O)C[C@@H]1O,-5&-5
CCCOc1ccc(-c2cc(C(=O)NO)[nH]n2)cc1C,-22
CCCCC/C=C\C/C=C\C/C=C\C=C\[C@@H](O)CCCC(=O)O,-12
COC(=O)Cn1c(=NC(=O)C(C)C)sc2cc(Cl)ccc21,-7
COc1ccc(-c2nnc(-c3cccnc3)o2)cc1OC,-7
CCCCCCCCCCCCC/C=C/[C@@H](O)[C@H](CO)N(C)C,-20&-20&-5
COc1ccc(-c2nc3ccccn3c2NC(=O)CC(C)C)cc1,2
Cc1nc2ccc(NC(=O)/C=C/c3ccccc3)cc2s1,-25
Cc1ccn2cc(C(=O)O)nc2c1,-6
Cc1cc(-c2ccc(S(=O)(=O)N3CCCCC3)cc2)on1,-7
O=C1/C(=C/c2ccco2)CC/C1=C\c1ccco1,-8
COc1cc([C@@H]2OC[C@@H](c3cc(OC)c(OC)c(OC)c3)O2)cc(OC)c1OC,-15&-15
CCCCCCCCCCCCC/C=C/[C@@H](O)[C@H](COP(=O)(O)O)NC(=O)CCCCCCC,-18&-18
CC[n+]1c(/C=C/N(C)c2ccccc2)n(-c2ccccc2)c2ccc(-c3nc4ccccc4s3)cc21,-35
Cn1nc(NC(=O)Cn2ccc(-c3ccsc3)n2)c2ccccc21,-12
Cc1ccc(Cn2nccc2NC(=O)Cn2cc(-c3ccc(F)cc3)cn2)o1,-24&-24
Cc1ccc(Nc2ccc(C)cc2)cc1,-2
CCCCCCCCCCCCCCCCCCCCCCC(=O)OCC,-10&-10
CC1=C(C(=O)Nc2ccccc2)C(c2ccc(F)cc2)n2ncnc2N1 (centres undefined),3
Cc1ccc(-c2nn(CC(=O)Nc3cnn(C)n3)c3ccccc23)c(F)c1,-26
NC(=O)c1ccccc1-c1cccc2ccccc12,-26&-26
Cn1c2ccccc2c2c3c(c4c5ccccc5n(CCC#N)c4c21)CNC3=O,-33&-15
CN(C)Cc1cn(CC2CCN(C(=O)c3ccc4c(c3)OCO4)CC2)nn1,45&45
CC(=O)Nc1ccc(OCC(O)CN2CCCC2)cc1 (centres undefined),-3
CCOC(=O)c1sc(NC(=O)C2CC2)nc1-c1ccccc1,-7
CCCC[C@@H](C=O)NC(=O)[C@H](CC(C)C)NC(=O)OCc1ccccc1,-8&-9
COc1cc(CN2CCc3c(cc(-c4cccc(F)c4)c(=O)n3CCn3ccc(C)n3)C2)ccc1O,-9
CCC(CC)C(=O)NCc1ccc2c(c1)cc(C)n2C,-7
O=C(N1CCN(c2ccccc2)CC1)C1(S(=O)(=O)c2ccccc2)CC1,1
Cc1cc(OCCCS(C)(=O)=O)cc(C)c1-c1cccc(COc2ccc3c(c2)OCC3CC(=O)O)c1 (centres undefined),-28
COc1ccc(NC(=O)CSc2nccn2-c2ccc(F)cc2)c(OC)c1,-14
CCC(C)c1ccccc1OCC(O)CNC(C)C (centres undefined),-7
Cc1ccc(-n2c(C)csc2=NC(=O)c2ccccc2)cc1,-20
Cc1ccc2oc(=O)n(S(C)(=O)=O)c2c1,-3
C[C@@H](O)CCC[C@H](O)/C=C/C1=C(C/C=C\CCCC(=O)O)C(=O)CC1,-15&-15
COc1ccccc1C(=O)Nc1sc2c(c1C(N)=O)CC(C)CC2 (centres undefined),4

3 entries picked at random from the list so far:
mol,HCMV UL50-53 inh
CCOC(=O)c1sc(NC(=O)C2CC2)nc1-c1ccccc1,-7
Cc1ccc(-c2nn(CC(=O)Nc3cnn(C)n3)c3ccccc23)c(F)c1,-26
Cc1ccc2oc(=O)n(S(C)(=O)=O)c2c1,-3

Going on with the list.
mol,HCMV UL50-53 inh
Cc1nc2cc3nc(-c4cccs4)cnc3cc2n1C,-62
CC(C)n1cnc2c(Nc3cccc(Cl)c3)nc(NCCCO)nc21,-11
CC(=O)Nc1nc2c(s1)CCc1ccccc1-2,-22
CCc1cc(Cl)c(OC)c(C(=O)NC[C@@H]2CCCN2CC)c1O,-3&-13
Cc1nc(N2CCCC2)c2ccsc2n1,-4
CC(=O)NCCc1nc2ccccc2[nH]1,-6
CCCCCCCCCCCCCCCCOCC(COP(=O)([O-])OCC[N+](C)(C)C)OC (centres undefined),-10
CCSc1nnc(CSc2ncccn2)n1C,-5
Nc1c(-c2ccccc2)cnn1-c1ccccc1,-6
COc1cccc2sc(N)nc12,-3
N#Cc1ccc(NCCNCC(=O)N2CCC[C@H]2C#N)nc1,1
N#Cc1cn(-c2ccccc2)nc1-c1ccccc1,-25
CC(=O)NCCCc1nc2ccccc2[nH]1,-3
Cc1cc(C(F)(F)F)nc(CNC(=O)c2ccc3nccnc3c2)n1,-62
CCCCC/C=C\C[C@@H](O)/C=C/C=C/C=C\[C@@H](O)CCCC(=O)O,-7
CC(C)(C)CN1CCN(CC2CC2)C(CCO)C1 (centres undefined),8
CCCCC[C@H](O)/C=C/[C@@H]1[C@H]2C/C(=C/CCCC(=O)O)C[C@H]2C[C@H]1O,-10
CC1(C)S[C@@H]2[C@H](NC(=O)COc3ccccc3)C(=O)N2C1C(=O)O (some centres undefined) (tested in a mixture with another compound),-26
COc1ccc(CCN(C)CCCN2CCc3cc(OC)c(OC)cc3CC2=O)cc1OC,0
O=C(NCCSc1c[nH]c2ccccc12)c1ccco1,-9
CCCC(=O)Nc1ncnc2c1ncn2[C@@H]1O[C@@H]2OP(=O)(O)OC[C@H]2[C@H]1OC(=O)CCC,-18
Cc1cc(-c2cccc(OC(C)C)c2)nc(N)n1,-22&-22
COc1ccc(/C=C/C(=O)Nc2nnc(SCc3ccccc3)s2)cc1OC,-9
CSc1cc(C(F)(F)F)nc(-c2ccccn2)n1,-3
CCn1c(-c2ccc(C)cc2)nc2ccccc21,-10
CCn1c(CCNC(C)=O)nc2ccccc21,-16
CN(C)c1ccc(-c2nc3ccccc3[nH]2)cc1,-11
c1ccc(CNc2nc(NCc3ccccc3)c3ccccc3n2)cc1,-8
COc1ccc(CCNC(=O)c2ccc3c(=O)n4nc(C)sc4nc3c2)cc1OC,-12
CCCCNC(=O)[C@@H]1C[C@H](CN2CCOCC2)CN(Cc2ccc(OC)c(OC)c2)C1,-7
O=C(O)/C=C1\CCCc2ccccc2C1O (centres undefined),-14
Cn1c(C(Cc2ccccc2)NC(=O)c2cccs2)nc2ccccc21 (centres undefined),-17
CN1CCc2c(OCC(=O)NCc3ccco3)cccc2C1=O,-16
O=C(Cc1ccccc1)Nc1c2c(nn1-c1ccccc1)CSC2,-19
COc1ccc2cc(CCNC(=O)/C=C\c3ccccc3)c(=O)[nH]c2c1,-16
COc1nc(C#N)c(N(C)C)o1,11

As entered above.
HCMV UL50-53 inh, CCCC(=O)Nc1ncnc2c1ncn2[C@@H]1O[C@@H]2OP(=O)(O)OC[C@H]2[C@H]1OC(=O)CCC = -18
HCMV UL50-53 inh, O=C(Cc1ccccc1)Nc1c2c(nn1-c1ccccc1)CSC2 = -19
HCMV UL50-53 inh, COc1ccc(/C=C/C(=O)Nc2nnc(SCc3ccccc3)s2)cc1OC = -9

Bioassay records (PubChem)
